Screening data (PubChem)
TRPML1 inh – qHTS for Inhibitors of the Human Mucolipin Transient Receptor Potential 1 (TRPML1); TRPML1-inducible cells, Ca2+ dye fluorescence, FDSS; active compounds read low; inhibition of EC80 agonist-evoked calcium signal; Mucolipin-1 (Homo sapiens), Q9GZU1; activity change, negative = inhibition, % (test concentration not listed); actives 0.02% (n = 390,000); in the data active means activity change below about -50%; inconclusive means about -30% to -50%; inactive means above about -30%;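 also: stimulus is agonist 54-4 at its EC80 concentration; % is scaled to controls: 0 for no effect and ±100 for the full control effect; compound concentration not given in the record; the text of the record puts the active cut at -80%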
Target sequence (Q9GZU1 whole entry, looked up): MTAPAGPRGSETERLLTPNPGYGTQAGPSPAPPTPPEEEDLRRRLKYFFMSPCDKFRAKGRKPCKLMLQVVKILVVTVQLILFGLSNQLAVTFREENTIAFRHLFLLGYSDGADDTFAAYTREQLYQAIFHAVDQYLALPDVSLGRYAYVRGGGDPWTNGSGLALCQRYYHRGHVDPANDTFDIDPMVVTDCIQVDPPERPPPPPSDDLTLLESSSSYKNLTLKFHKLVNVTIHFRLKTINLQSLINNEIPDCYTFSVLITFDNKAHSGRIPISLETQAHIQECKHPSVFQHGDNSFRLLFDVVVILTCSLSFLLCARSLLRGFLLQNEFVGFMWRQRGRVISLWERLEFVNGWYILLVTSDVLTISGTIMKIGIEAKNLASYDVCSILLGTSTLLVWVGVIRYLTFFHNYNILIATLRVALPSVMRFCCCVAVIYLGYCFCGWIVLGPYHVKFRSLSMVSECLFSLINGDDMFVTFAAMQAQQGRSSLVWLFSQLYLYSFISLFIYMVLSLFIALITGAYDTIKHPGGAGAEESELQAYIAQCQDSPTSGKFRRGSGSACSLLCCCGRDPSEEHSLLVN
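TRPML1-DL cells, Tet-induced overnight (~16 h, 37 °C) at 1,500 cells/well, were loaded with Ca8 no-wash dye plus quencher for 45-90 min at room temperature. Compounds were pinned during FDSS kinetic reading; agonist 54-4 at EC80 (4 uM final) then added.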
D2 agonist – Beta-Arrestin HTS for Positive Allosteric Modulators of the Human D2 Dopamine Receptor: Agonists. DiscoveRx PathHunter D2 beta-arrestin, luminescence, 90 min; 100% = 57 uM dopamine signal. activation, % (concentration not given with the values). actives 0.084% (n = 360,000); in the data active = activation above about 40%; inconclusive = about 15% to 40%; inactive = below about 15%; also: compound concentration not given in the record; the text of the record calls up to 30% inactive
Target sequence (P14416 whole entry, looked up): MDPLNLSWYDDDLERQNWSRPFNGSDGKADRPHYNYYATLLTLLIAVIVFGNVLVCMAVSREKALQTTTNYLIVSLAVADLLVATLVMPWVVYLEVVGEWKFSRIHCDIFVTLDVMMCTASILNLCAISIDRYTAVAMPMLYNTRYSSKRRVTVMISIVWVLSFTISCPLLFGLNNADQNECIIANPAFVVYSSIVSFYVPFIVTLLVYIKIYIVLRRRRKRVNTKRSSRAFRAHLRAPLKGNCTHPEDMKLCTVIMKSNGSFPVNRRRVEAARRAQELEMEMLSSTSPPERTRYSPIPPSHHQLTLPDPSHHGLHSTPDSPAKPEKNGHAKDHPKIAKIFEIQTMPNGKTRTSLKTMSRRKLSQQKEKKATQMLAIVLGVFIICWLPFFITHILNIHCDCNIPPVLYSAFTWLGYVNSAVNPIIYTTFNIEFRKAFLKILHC
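DiscoveRx PathHunter D2 beta-arrestin cells (2,100/well) attached overnight, then compound-stimulated 90 min at 37 C in HBSS/10 mM HEPES/0.1% Tween-20 buffer; beta-galactosidase complementation read by luminescence after 1 h at ambient temperature. Dopamine 57 uM final (EC100) as control.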
D2 PAM – Beta-Arrestin HTS for Positive Allosteric Modulators of the Human D2 Dopamine Receptor: Potentiators. DiscoveRx D2 beta-arrestin cells, luminescence, 90 min; 100% = 57 uM dopamine signal. AID 624464, 2012. D(2) dopamine receptor (Homo sapiens), P14416. actives 0.23% (n = 360,000). potentiation, % (no concentration beside the values); active = potentiation of 50% or more; inconclusive = 30% to 50%; inactive = 30% or less;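 also: compound concentration not given in the record; tested on top of an EC20 dose of dopamine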
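PathHunter D2 cells, attached overnight at 37 deg C, received compound in DMSO plus dopamine at EC20 (50 nM final) for 90 min at 37 deg C. Beta-arrestin recruitment was read as luminescence after 1 h with detection reagent at ambient temperature.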
PINK1 modulator – A Quantitative High throughput Screen to Identify Chemical Modulators of PINK1 Expression | AID 624263, 2012 | Potency, µM (series often up to 76.6 µM), without a hit: at the top dose activation (PINK1 increase), usual class: activators | PINK1 immunofluorescence, high-content cytometry, 24 h | actives 0.2% (n = 410,000); active = well fitted activation curve with a large enough effect; inconclusive = small, poorly fitted or top-dose-only effect; inactive = flat fitted curve, though single readings scatter; cell line not stated here;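 also: potency is read from the fitted curve at half-maximal effect; % of control where 0% means no effect; nearly all actives have a fitted effect of over 65% in size; a mitochondrial uncoupler was the plate control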
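Cells are seeded, rested 12 hours, then given compound at five concentrations or DMSO for 24 hours. After fixation, blocking and antibody staining, PINK1 amount and mitochondrial localization are scored; CCCP serves as control.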
Six1-Eya2 inh – qHTS Assay for Inhibitors of the Six1/Eya2 Interaction. AlphaScreen GST-Six1/His-Eya2 binding, biochemical; active compounds read low; control for the full effect not named in the record. activity change, % (concentration not given with the values). AID 651725, 2012. actives 0.56% (n = 360,000); in the data active = activity change below about -65%; inconclusive = about -30% to -65%; inactive = above about -30%; also: % is scaled to controls: 0 for no effect and ±100 for the full control effect
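Homogeneous AlphaScreen proximity assay pairing GST-Six1 with His-tagged Eya2 (added as 5X mix: 250 nM and 500 nM) in 50 mM Tris pH 8.0, 300 mM NaCl, 1 mM TCEP. Glutathione donor and nickel acceptor beads; 1 h, 37 °C, dark.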
TRPML1 agonist – qHTS for Agonists of the Human Mucolipin Transient Receptor Potential 1 (TRPML1); Mucolipin-1 (Homo sapiens), Q9GZU1; TRPML1-expressing cells, Ca2+ dye fluorescence, FDSS; host cell line not named in the record; reference of the full effect not given here; activation, % (no concentration beside the values); actives 0.12% (n = 410,000); AID 624414, 2012; in the data active = activation above about 50%; inconclusive = about 30% to 50%; inactive = below about 30%; also: 0% is about no effect; the text of the record puts the active cut at 80%
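TRPML1-DL cells, Tet-induced overnight (~16 h, 37 degrees C), loaded 45-90 min at room temperature with Ca8 no-wash calcium dye plus quencher. FDSS fluorescence: 10 s baseline, compound pin-transfer, 110 s agonist read, then EC80 54-4 (4uM final) and 110 s antagonist read.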
An asterisk follows results filed as active; ? = inconclusive; / = no result given; [ ] = remark or other dose. Rows were taken by chance; any-hit rate near 1%.

The first two compounds, ahead of the listing:
Fields: TRPML1 inh, D2 PAM, PINK1 modulator, D2 agonist, TRPML1 agonist, Six1-Eya2 inh
> CCc1ccc(/C=N/NC(=O)Cc2ccc(OC)c(OC)c2)s1
→ 5, -7, 1.9%, -2.6, 0.1, 3
> Cc1ccc2[nH]c(SCC(=O)N3CCOCC3)nc2c1C
→ -15, -20, -0.4%, -1.5, -0.2, 5

This part in full, from the start:
Fields: TRPML1 inh, D2 PAM, PINK1 modulator, D2 agonist, TRPML1 agonist, Six1-Eya2 inh
> CCc1ccc(/C=N/NC(=O)Cc2ccc(OC)c(OC)c2)s1
→ 5, -7, 1.9%, -2.6, 0.1, 3
> Cc1ccc2[nH]c(SCC(=O)N3CCOCC3)nc2c1C
→ -15, -20, -0.4%, -1.5, -0.2, 5
> O=[N+]([O-])c1ccc(N2CCN(S(=O)(=O)c3ccccc3)CC2)cc1NCCN1CCOCC1
→ -1, -17, 0.9%, -6.2, -1.0, 19
> C[C@H](CO)N1C[C@H](C)[C@@H](CN(C)S(=O)(=O)c2cn(C)cn2)Oc2c(NC(=O)Nc3ccc(C(F)(F)F)cc3)cccc2C1=O
→ 8, 5, -0.4%, 5.2, -0.3, 8
> COc1cccc(/C=C/C(=O)OCC(=O)NC2CCCCCCC2)c1
→ 14, 2, -0.2%, -1.6, 4.7, -6
> CC1CCCCC1NS(=O)(=O)c1ccc2c(c1)CCC(=O)N2 (configuration not stated)
→ 6, -5, -0.8%, 10, -0.6, -2
> COc1ccc(C(=O)C2CCCN(C(=O)c3cccnc3OC)C2)c(C)c1 (configuration not stated)
→ -3, -4, 0.2%, 2.3, -0.8, -4
> CCCCCN(C(=O)CCC(=O)OCC(=O)c1ccc(C(C)(C)C)cc1)c1c(N)n(CCCC)c(=O)[nH]c1=O
→ -3, 3, 7.1%, -3.8, -0.5, 1
> CCOC(=O)CNC(=O)CNC(=O)c1nn(-c2ccc(OC)c(OC)c2)c(=O)c2ccccc12
→ -23, -8, 2.8%, 0.1, 1.0, 17
> Cn1c(=O)n(C)c2cc(/C=N/NC(=O)c3cc4cc(Br)ccc4o3)ccc21
→ -11, -5, -1.3%, -2.4, -0.3, 8
> O=C(Nc1ccn(CCCNCC2CCCCC2)c(=O)n1)OCc1ccccc1
→ /, /, 4.1%, -4.6, /, 2
> O=C(CSc1nnc(Cc2ccccc2)o1)Nc1ccc2c(c1)OCO2
→ 16, -18, -2.1%, -3.0, -0.7, 4
> CCNc1ccccc1CP(=O)(c1ccccc1)c1ccccc1O (configuration not stated)
→ 16, 3, -0.4%, 5.1, 9.2, -21
> CCN(CC(=O)Nc1c(F)cccc1F)C(=O)CNC(=O)c1sc2ccccc2c1Cl
→ 3, 0, 13%, -1.8, -0.2, 0
> CCN(CC)CC(=O)N(CC(=O)Nc1c(C)cc(C)cc1C)C1CCCCC1
→ 42, 1, -5.8%[38.3 µM], 0.6, -0.1, 1
> O=C(Nc1ccc(Oc2ccccc2)cc1)c1csc(COCCO)n1
→ /, -14, -0.7%, 9.4, -0.3, 0
> COCCN(C(=O)CCC(=O)Nc1nccs1)C(C(=O)NC(C)(C)C)c1ccc(Cl)cc1 (configuration not stated)
→ 17, 0, -1.1%, -6.5, 0.3, -4
> Cc1cc(OCCCn2ccnc2)cc(C(C)C)c1
→ 2, -11, -0.1%, -4.6, 0.6, 10
> CC(C)c1cc(C(=O)N/N=C/c2cccnc2)cs1
→ -22, -10, 0.9%, 3.1, 1.4, -2
> O=C(CCC(=O)c1ccc(Br)cc1)Nc1cccnc1
→ -8, -15, 1.2%, -5.2, 1.2, -4
> CCN1CCOC(=O)C1CC(=O)Nc1ccc(C(C)=O)cc1 (configuration not stated)
→ 35, /, 2.1%, /, -0.3, /
> COc1ccc(OCc2nc3c4c(-c5ccc(OC)cc5)c(-c5ccc(OC)cc5)oc4ncn3n2)cc1
→ -6, /, -2.3%, /, 0.2, /
> Cc1ccc(C(=O)N/C(=C\c2sccc2C)C(=O)NCc2ccncc2)cc1
→ 0, -8, 0.6%, -2.8, -0.4, 3
> COc1ccc(C2=Nn3c(nnc3C(F)(F)F)SC2)cc1
→ 1, -11, 0.8%, -2.5, 1.4, 0
> CCOC(=O)Cc1cnc(NC(=O)CSc2nc(N)cc(=O)[nH]2)s1
→ 15, -5, -1.1%, -4.2, 1.1, 6
> COC(=O)C1=C(C)N(Cc2ccccc2)C(=NCCCCO)N[C@H]1c1cccc(C(F)(F)F)c1
→ -1, -9, 0.1%, -8.1, -0.5, -4
> Cc1cc(C2=CC(=O)C[C@H](c3ccc(F)cc3)C2)ccc1F
→ 35, 1, 1.5%, -5.9, 4.2, 4
> O=C(Cc1cccs1)OCC(=O)c1ccco1
→ -14, -8, 0.5%, -3.3, -0.7, -4
> OC(COc1ccc(Cl)cc1)CN1C2=NCCCN2c2ccccc21 (configuration not stated)
→ 31, -36, 2.5%, -1.2, 1.1, 3
> CC1(C)CC(C)(O)N(Cc2ccccc2)C(=S)N1 (configuration not stated)
→ -11, -15, 2.5%, -4.3, 1.3, -7

Arranged by value in D2 PAM (low to high): four from the list above
smiles	TRPML1 inh	D2 PAM	D2 agonist	Six1-Eya2 inh
O=C(CSc1nnc(Cc2ccccc2)o1)Nc1ccc2c(c1)OCO2	16	-18	-3.0	4
O=[N+]([O-])c1ccc(N2CCN(S(=O)(=O)c3ccccc3)CC2)cc1NCCN1CCOCC1	-1	-17	-6.2	19
COC(=O)C1=C(C)N(Cc2ccccc2)C(=NCCCCO)N[C@H]1c1cccc(C(F)(F)F)c1	-1	-9	-8.1	-4
CCNc1ccccc1CP(=O)(c1ccccc1)c1ccccc1O (configuration not stated)	16	3	5.1	-21

New compounds follow
Fields: TRPML1 inh, D2 PAM, PINK1 modulator, D2 agonist, TRPML1 agonist, Six1-Eya2 inh
> COc1cc(C)c(S(=O)(=O)Nc2cccc(-c3ccc(N4CCCC4)nn3)c2)cc1C
→ -12, /, 3.6%, /, 1.0, /
> O=C(O)c1cccc(NC(=O)c2ccccc2NC(=O)c2ccco2)c1
→ /, -1, -0.6%, 0.7, /, -16
> O=C(O)CC1S/C(=N/N=C2CCCCC2)N(c2ccccc2)C1=O (configuration not stated)
→ -3, -1, -1.4%, -1.2, 0.4, 14
> O=C(NCCc1ccccc1)c1cc2ncc(Br)cn2n1
→ -4, -1, 2.3%, -4.5, -0.9, 11
> CNC(=O)c1ccc(-c2ccc(F)cc2)s1
→ -2, 2, 1.4%, -2.5, 1.1, 1
> CCOC(=O)C1CCCN(C(=O)C(C)(C)Oc2ccc(Cl)cc2)C1 (configuration not stated)
→ 13, 10, -0.4%, 1.0, 1.2, -10
> FC(F)(F)Oc1ccc(NC(=S)NCCCN2CCOCC2)cc1
→ 6, -12, -0.1%, 4.7, 0.5, -1
> Fc1cccc(NC(=S)N2CCCC2)c1
→ 16, -6, 1.9%, -5.4, -0.3, 3
> COc1cccc(CN(C)C[C@@H]2OCc3cnnn3CCCC(=O)N([C@H](C)CO)C[C@H]2C)c1
→ 6, 2, -0.2%, -9.8, -0.3, 6
> CS(=O)(=O)c1ccc(Nc2nc(C(N)COCc3ccccc3)cs2)cc1 (configuration not stated)
→ /, -3, 0.8%, 2.0, -0.1, 2
> CCCN(CCC)CCNC(=O)c1ccc2c(c1)NC(=O)C(CS(=O)(=O)Cc1cccc(Br)c1)N2 (configuration not stated)
→ -1, /, -0.2%, /, 0.0, /
> COc1ccccc1/C=C/C(=O)OCC(=O)Nc1c(C)nn(-c2ccccc2)c1C
→ 7, 29, 1.2%, ?, -0.9, 6
> Cc1cccc(Nc2nc(N)nc(CSc3nccc(C)n3)n2)c1
→ -16, 1, 4.1%, -2.0, 0.1, -8
> Cc1ccc(S(=O)(=O)NC(=O)C2(C)CCN2C(=O)CC2CCCCC2)nc1 (configuration not stated)
→ /, -3, 1.4%, 3.3, 0.7, 7
> C=CCNC(=O)COc1coc(CN2CCN(Cc3ccccc3)CC2)cc1=O
→ 2, 2, 0.3%, -2.0, -0.4, 1
> Cc1cc(-c2ccc(/C=N/n3cnnc3)o2)c([N+](=O)[O-])cc1C
→ 2, -16, -0.3%, -1.3, -0.1, -21
> Cc1ccc(-c2noc(CCCN3C(=O)c4ccccc4C3=O)n2)cc1
→ -14, -9, /, -1.5, 0.2, 6
> O=C(CN1CCN(c2ncccn2)CC1)N(Cc1ccccc1)c1ccc(F)cc1
→ -12, -21, -5.4%[38.3 µM], -1.5, 0.3, -1
> COc1cc(SC#N)ccc1N=Cc1c(C)[nH]n(-c2ccc(C)cc2)c1=O
→ 8, -9, -1.8%, -2.4, -0.7, ?
> COc1cccc(C(=O)N(Cc2ccccc2)Cc2cc3cc4c(cc3[nH]c2=O)OCCO4)c1
→ 12, -15, -1.0%[38.3 µM], -2.0, 0.6, -8
> CC(C)c1ccc(S(=O)(=O)c2cn(CC(=O)Nc3ccc(F)cc3)c3ccccc3c2=O)cc1
→ 1, /, 2.0%, /, 0.1, /
> N#C/C(=C\c1ccc(-c2cccc(Cl)c2)o1)C(=O)Nc1cccc2cccnc12
→ -5, -7, ?, -0.6, -0.1, 24
> CN1CCN(c2nc3c(c(=O)n(C)c(=O)n3C)n2Cc2cccc3ccccc23)CC1
→ 18, -24, -1.4%, -3.1, 0.4, -2
> COC(=O)CN(c1ccccc1C)S(C)(=O)=O
→ -7, -6, 2.7%, -3.8, 0.1, 11
> CC(=O)c1ccc(N2CCN(C(=O)c3ccc(Cl)c(S(=O)(=O)NC4CC4)c3)CC2)c(F)c1
→ 10, -4, -3.0%, -4.3, 0.4, -2
> COc1cc([N+](=O)[O-])ccc1NC(=S)Nn1cnnc1
→ 15, -43, 0.6%, -13, 0.4, -10
> CC(C)(C)c1ccc(CC(=O)N2CCC2(C)C(=O)NS(=O)(=O)c2cccs2)cc1 (configuration not stated)
→ -22, -8, 0.3%, -3.1, -0.4, 5
> CCc1ccc(C2NC(=O)c3[nH]nc(-c4cccc(OC)c4)c32)cc1 (configuration not stated)
→ 4, /, 1.2%, /, 1.8, /
> COc1ccc(NC(=O)c2ccc3nc(C)c(N(C)C(=O)CCc4ccccc4)n3c2)cc1OC
→ /, -5, 1.9%, 3.4, -0.2, 3
> CC(NCC(=O)NCC(=O)Nc1ccc(F)cc1)c1cccc(C(F)(F)F)c1 (configuration not stated)
→ 5, -49, 5.3%, -5.7, 0.3, -2
